High-throughput results (PubChem)
RecA splice inh: blocks M. tuberculosis RecA intein splicing | AID 2221 | inhibition, %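 (about 9 µM by stock and volumes)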 | cell-free RecA intein splicing, fluorescence | 0.75% of 290,000 active | P9WHJ3; in the data active means inhibition above about 30%; inconclusive means no clear call, values can overlap the other calls;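 further: 0% = vehicle wells and 100% = reference inhibitor control wells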
Target sequence (P9WHJ3 whole entry, looked up, canonical isoform): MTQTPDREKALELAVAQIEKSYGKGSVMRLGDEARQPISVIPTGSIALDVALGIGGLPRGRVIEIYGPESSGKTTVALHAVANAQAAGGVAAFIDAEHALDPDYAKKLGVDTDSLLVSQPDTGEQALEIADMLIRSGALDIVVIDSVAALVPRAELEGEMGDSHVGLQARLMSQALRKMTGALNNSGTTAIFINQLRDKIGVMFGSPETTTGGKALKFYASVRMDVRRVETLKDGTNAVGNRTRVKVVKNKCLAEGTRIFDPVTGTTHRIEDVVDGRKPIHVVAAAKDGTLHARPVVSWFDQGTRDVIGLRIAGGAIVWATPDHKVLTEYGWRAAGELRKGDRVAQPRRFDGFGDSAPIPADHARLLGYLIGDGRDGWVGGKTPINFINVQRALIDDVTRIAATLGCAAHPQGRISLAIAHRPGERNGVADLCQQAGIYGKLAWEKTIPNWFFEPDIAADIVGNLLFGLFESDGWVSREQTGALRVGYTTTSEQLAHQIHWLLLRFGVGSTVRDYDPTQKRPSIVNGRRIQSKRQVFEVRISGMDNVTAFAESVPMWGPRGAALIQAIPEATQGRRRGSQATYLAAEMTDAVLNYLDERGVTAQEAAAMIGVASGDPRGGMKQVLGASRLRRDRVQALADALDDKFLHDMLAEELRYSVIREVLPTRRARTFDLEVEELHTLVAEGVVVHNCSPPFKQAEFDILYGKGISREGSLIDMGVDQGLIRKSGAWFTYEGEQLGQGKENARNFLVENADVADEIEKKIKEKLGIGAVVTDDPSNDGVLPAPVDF
YopH inh: blocks Yersinia enterocolitica YopH tyrosine phosphatase; fluorescence Ex485/Em525; inhibition, %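 (about 10 µM by stock and volumes)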; 0.16% of 140,000 active; AID 898;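 active means inhibition of 50% or more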;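 further: controls were vehicle for no effect and minimum signal wells for full effect; inactives centre near -20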
Mtb growth: M. tuberculosis H37Rv growth inhibitors, H37Rv strain (AID 1626); 0.95% of 220,000 active; M. tuberculosis H37Rv growth inhibition; higher % means a stronger effect; inhibition, % at 10 µM, or IC50 in µM where a hit was titrated;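 active means confirmed in a dose series; inconclusive means inhibition above 80% but not taken into the dose series; inactive means below 80% or under 30% at every dose of the series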;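 further: bacteria incubated seven days before Alamar blue readout; 0% = bacteria only wells and 100% = bacteria with antibiotic wells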
Arbovirus inh: arbovirus infection inhibition. arbovirus infection cell-based antiviral screen. inhibition, % at 10 µM. 0.37% of 200,000 active. AID 1251;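 active means inhibition from about 30%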;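 further: bluetongue infection of BSR cells; cell survival read as ATP light after 72 h; 0% = infected wells without compound and 100% = uninfected wells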
Mtb betalactam: beta-lactam sensitization of Mtb H37Rv; M. tuberculosis H37Rv growth with meropenem, percent inhibition; hits of this screen are not shown here; 0.27% of 330,000 active; inhibition, % at 25 µM; AID 434955;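 active means about 74% or more and at least 40 points above the plate without the antibiotic, then above 30% in a dose series; inconclusive means first-round hits that could not be retested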;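 further: growth measured after seven days incubation then overnight dye step; 0% = bacteria only wells and 100% = bacteria with antibiotic; twin plates without the antibiotic show which effects depend on it; some results filed as inactive read as strong as hits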
Arbovirus inh repeat: second read-out of Arbovirus inh, no call of its own (marks repeat the call); inhibition, %; measured here: 10K subset replicate screen; many hits read low in the repeat;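 first of two repeat runs on a subset; 0% = infected and 100% = uninfected wells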
Starred values were filed as active, the others as inactive; i = inactive; ? = inconclusive; . = not tested or not shown. The list is partial (hit frequency here may not be typical).

SMILES | RecA splice inh | YopH inh | Mtb growth | Arbovirus inh | Mtb betalactam | others
Cc1nc2ccc(S(=O)(=O)NCC(=O)O)cc2s1 | 1.3 | -22 | 1% | 3 | 2
Cc1c(C)c2c(OCC(=O)NCC(O)c3ccccc3)cc3c(c2oc1=O)CCC(C)(C)O3 (stereo unspecified) | 2.3 | . | . | . | 2
COc1ccc(C2C=C(c3ccc(C)cc3)Nc3ncnn32)cc1 (stereo unspecified) | i | -52 | . | 86* | .
COc1ccccc1CNC(=O)C1CCC(CNS(=O)(=O)c2cccc3cccnc23)CC1 (stereo unspecified) | -3.0 | . | . | . | 2
O=C1CC(N2CCN(c3ccccc3Cl)CC2)C(=O)N1c1ccc(F)cc1 (stereo unspecified) | 0.5 | 2 | 4% | 4 | 13
O=C(N=Nc1c(O)[nH]c2ccccc12)c1cccc(S(=O)(=O)Nc2ccccc2Cl)c1 | -3.8 | . | -10% | -2 | -4
CS(=O)(=O)N1CCN(c2ccccc2NC(=O)CSc2nnc(-c3ccco3)o2)CC1 | -3.0 | -28 | -10% | 8 | 1
O=C(CNC(=O)c1ccc(F)cc1)N/N=C/c1cc(Br)ccc1OC(=O)/C=C/c1ccco1 | -2.6 | . | 2% | . | 41
CCn1nnnc1SCC(=O)N1c2ccccc2CCc2ccccc21 | 12 | -26 | 2% | 0 | 55
CCOC(=O)C1=C(C)N=C2SC(C)C(=O)N2C1c1ccccc1 (stereo unspecified) | 0.7 | . | -1% | 0 | -10
CCOC(=O)Cn1c(CN2CCOCC2)nc2c1c(=O)[nH]c(=O)n2C | -0.8 | -28 | -4% | 0 | -7
COc1ccc(NC(=O)CS(=O)c2ccc(Cl)c(Cl)c2)cc1 (stereo unspecified) | 0.1 | . | . | . | -25
O=C(Nc1cc([N+](=O)[O-])ccc1N1CCOCC1)c1cccs1 | -1.3 | . | . | . | 2
CCOc1ccc(C(=O)Nc2c3c(nn2-c2ccc(C)cc2)CS(=O)C3)cc1OCC (stereo unspecified) | . | -23 | 8% | -1 | -5 | Arbovirus inh repeat=-5
CCOC(=O)c1nn(-c2ccc(C)cc2)c(=O)cc1OCC(=O)Nc1cccc(C)c1 | 1.3 | . | . | . | -5
C=CCn1c(SCCNC(C)=O)nc2cc(-c3ccccc3)sc2c1=O | -0.3 | . | . | . | 5
CC1(C)CC(=O)C(N=Nc2ccc(F)cc2)=C(O)C1 | -0.5 | . | -11% | . | -2
C=CCn1c2ccccc2c(=O)c2cc(C#Cc3ccsc3)ccc21 | -22 | . | . | . | 66
CCCCCCCn1c(=N)n(CC(=O)c2ccco2)c2ccccc21 | 3.7 | 1 | 26% | -31 | 18
Cc1cc(Cl)c(OCCN2C(=O)NC(C)(C)C2=O)c(Br)c1 | -0.7 | 10 | -4% | 8 | -25
O=C(C1CCCCC1)N1CCc2ccccc21 | 1.2 | . | 1% | -1 | -3
O=C(OCC(=O)N1CCOCC1)c1ccccc1O | -1.0 | . | . | . | 2
COc1cccc(CNC(=O)c2ccc(Cl)c(NC3=NC4CS(=O)(=O)CC4S3)c2)c1 (stereo unspecified) | -1.5 | . | . | . | 4
CC(=NC(C)c1ccccc1)c1c(O)[nH]c(=O)[nH]c1=O (stereo unspecified) | -0.8 | -3 | -3% | -37 | 4
O=C(COC(=O)c1ccc2c(c1Cl)C(=O)c1ccccc1C2=O)NC1CCCCC1 | 22 | -30 | 3% | -11 | 6
CCn1c(=O)c2c(nc(SCC(=O)NCC3CCCO3)n2C)n(C)c1=O (stereo unspecified) | 0.4 | -35 | -10% | 4 | 9
COc1ccccc1NC(=O)c1ccccc1-c1ccccc1C(=O)O | -3.1 | . | . | . | 6
CCOC(=O)Cn1nc(-c2ccccc2)ccc1=O | -1.9 | -42 | -3% | 2 | -1
O=C(NCc1ccccc1)c1ccc(Cl)nc1 | 6.2 | . | . | 5 | 3
O=C(CSc1nc2ccccc2[nH]1)N/N=C/C=C\c1ccccc1[N+](=O)[O-] | -2.8 | -44 | 9% | -3 | -3
CCOC(=O)C1CCN(S(=O)(=O)c2c(C)[nH]c(=O)[nH]c2=O)CC1 | 2.9 | -38 | -3% | 14 | 2
CN1CCN(C(=O)CSc2ccc(C(F)(F)F)cc2[N+](=O)[O-])CC1 | 0.6 | -16 | -9% | -8 | 1
COc1ccc(-c2ncc(CN3CCN(CCC(C)C)C(CCO)C3)cn2)cc1 (stereo unspecified) | -3.1 | . | -2% | 0 | -9
O=C(O)C1CCCCC1C(=O)NC1CCCCC1 (stereo unspecified) | -0.4 | -8 | -12% | -4 | ?
Cn1c(NC(=O)c2ccc(F)c(F)c2)cc(=O)n(C)c1=O | 0.9 | -29 | 2% | -5 | -6 | Arbovirus inh repeat=1
COc1ccc(Cc2nc3ccc(C(=O)NCCn4ccnc4C)cc3o2)cc1OC | 1.8 | . | . | . | -1
O=C1C2CC=CCC2C(=O)N1c1ccc(NCCc2ccccc2F)c([N+](=O)[O-])c1 (stereo unspecified) | -0.1 | -33 | 3% | -4 | 1
N#Cc1ccc(C(=O)Nc2ccc([N+](=O)[O-])cc2)c(F)c1 | 2.6 | . | -12% | -10 | -5
COc1cc(/C=N/NC(=O)c2ccccn2)cc2c1OCO2 | -0.9 | -45 | 16% | -2 | 98
CCc1ccc2[nH]c(=O)c(C(c3nnnn3Cc3ccccc3)N3CCOCC3)cc2c1 (stereo unspecified) | -5.8 | -34 | -5% | 0 | 2
CCn1ncc2c(OCc3ccc(C#N)cc3)cc(C)nc21 | 13 | -30 | -2% | -5 | 13
COC(=O)c1c(NC(=O)c2cccc(N3C(=O)CCC3=O)c2)sc2c1CCN(C(C)=O)C2 | -1.4 | . | . | . | -2
CC(=O)c1cc(CN2CCN(Cc3ccccc3)C(CCO)C2)cs1 (stereo unspecified) | 2.8 | . | -2% | 3 | -1
CC(C)CC(=O)Nc1ccc2c(c1)OCO2 | -2.2 | . | -3% | 1 | -6
CCCCC(=O)Nc1ccc(C(=O)Nc2ccc(OC)cc2[N+](=O)[O-])cc1 | -13 | -24 | 13% | -3 | 0
Cc1csc(SCC(=O)Nc2cccc(S(=O)(=O)N3CCCC3)c2)n1 | 1.6 | 10 | 1% | -1 | -3
COc1ccccc1NCC(=O)N/N=C/c1sccc1C | 1.5 | . | 0% | 0 | -4
COc1ccc(S(=O)(=O)N2CCC(C(=O)Nc3cccc(C(C)=O)c3)CC2)cc1C | -1.8 | -10 | -3% | -2 | 62
CCOc1ccccc1OCCCC(=O)Nc1sccc1C(N)=O | -2.1 | -12 | 9% | 0 | -5
Cc1ccc(C(=O)NCCNC(=O)c2ccccn2)cc1 | 1.3 | . | . | . | 5
COc1ccc(C(=O)Nc2ccccc2Cc2ccccc2)c(OC)c1 | 11 | -7 | 13% | 5 | 94
CC(C)(C)[C@H]1C=C(C(=O)NC2CC2)O[C@@H](OCc2ccc(CO)cc2)C1 | 0.5 | . | -12% | -2 | 2
Cc1ccc2[nH]c(C(=O)N3CCOCC3)cc2c1 | 0.6 | . | . | . | 3
Cc1ccc(CN2C(=O)CCC2C(=O)NCCCN2CCOCC2)cc1 (stereo unspecified) | -2.3 | -21 | -9% | 3 | -9
CCC(=O)Oc1ccc(C(=O)Nc2ccc([N+](=O)[O-])cc2)cc1 | 3.5 | . | -3% | -2 | -1
Cc1cc(C)nc(SCC(=O)N2CCC(C(N)=O)CC2)n1 | 1.0 | -5 | -6% | 0 | -7
COc1c2c(cc3ccc(=O)oc13)CCO2 | -1.9 | . | . | . | -1
Cn1c(Cc2ccccc2)nnc1SCC(=O)NC1CC1 | -3.4 | . | . | . | 4
CCOc1ccccc1N1CC(C(=O)Nc2ccccc2N2CCOCC2)CC1=O (stereo unspecified) | -0.1 | -39 | 0% | 1 | -7
CC(C)c1ccc(S(=O)(=O)NC2CCS(=O)(=O)C2)cc1 (stereo unspecified) | -1.5 | . | . | . | -9

The listing continues.
SMILES | RecA splice inh | YopH inh | Mtb growth | Arbovirus inh | Mtb betalactam | others
COc1ccc(-n2ncc3c(NCC4CCCO4)ncnc32)cc1 (stereo unspecified) | 0.1 | 19 | -1% | 8 | 2
O=C(CN1CCOCC1)Nc1cc(Cl)ccc1Cl | -4.1 | -14 | 1% | -2 | -14 | Arbovirus inh repeat=-4
Cc1cccc(-n2c(CNC(=O)c3ccc(S(=O)(=O)N4CCCC4)cc3)n[nH]c2=S)c1 | 3.1 | -27 | 3% | 2 | -1
CC1CC(Nc2ccccc2)c2ccccc2N1C(=O)c1ccco1 (stereo unspecified) | 8.0 | . | -9% | . | -8
c1ccc(N/N=C(\Cc2nc3ccccc3[nH]2)c2ccccc2)cc1 | -6.0 | 1 | ? | -20 | 19
CCCSc1nc2c(cnn2-c2ccc(F)cc2)c(=O)[nH]1 | 1.1 | -21 | 2% | -5 | -4 | Arbovirus inh repeat=-9
Cc1noc(C)c1CSc1nnnn1-c1ccc(Cl)cc1 | 3.9 | -37 | -1% | -2 | -1
NC(=O)N/N=C/c1cc(Br)ccc1OCC(=O)NCc1ccccc1 | 1.8 | 5 | 10% | -5 | 6
COc1cccc(C(=O)COc2ccc3c(C)c(Cc4ccccc4)c(=O)oc3c2)c1 | 2.3 | -25 | -3% | -2 | -1
CCn1cc(C(=O)Nn2cnnc2)c(=O)c2ccc(C)nc21 | -1.3 | . | . | . | 4
CCn1c(SCC(=O)N2CCCCC2)nc2c(c1=O)SC(C)C2 (stereo unspecified) | -2.6 | -8 | 3% | 2 | 0
CNC(=O)c1[nH]cnc1C(=O)Nc1ccc(Cl)cc1 | -0.6 | . | ? | . | 98
OCCC#Cc1ccc(CN2CCN(CCc3ccccc3)C(CCO)C2)cc1 (stereo unspecified) | -0.6 | . | . | . | -2
Cc1cc(Br)cn2ccnc12 | -0.6 | -37 | . | 2 | 2
C=CC[n+]1c(-c2ccc(C)cc2)csc1Nc1ccc(NC(C)=O)cc1 | 4.0 | . | -3% | -18 | .
COc1ccc(-n2nc(C(=O)NCCCN3CCCC3=O)c3c4ccccc4n(C)c3c2=O)cc1Cl | 1.2 | . | . | . | 6
